Bioassay records as filed in PubChem BioAssay.
Mtb growth: M. tuberculosis H37Rv growth inhibitors, H37Rv strain (AID 1626) | M. tuberculosis H37Rv growth inhibition; higher % means a stronger effect | inhibition, % at 10 µM; hits with a dose series show IC50 in µM | hit rate 0.95% among 220,000;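 active = confirmed in a dose series; inconclusive = inhibition above 80% but not taken into the dose series; inactive = below 80% or under 30% at every dose of the series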;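 also: bacteria incubated seven days before Alamar blue readout; 0% = bacteria only wells and 100% = bacteria with antibiotic wells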
Mtb bLac sens: beta-lactam sensitization of Mtb H37Rv, H37Rv. M. tuberculosis H37Rv growth with meropenem, percent inhibition; hits of this screen are not shown here. inhibition, % at 25 µM. hit rate 0.27% among 330,000. AID 434955, 2010;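 active = about 74% or more and at least 40 points above the plate without the antibiotic, then above 30% in a dose series; inconclusive = first-round hits that could not be retested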;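 also: growth measured after seven days incubation then overnight dye step; 0% = bacteria only wells and 100% = bacteria with antibiotic; twin plates without the antibiotic show which effects depend on it; some results filed as inactive read as strong as hits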
Arbovirus anti: antivirals against arbovirus infection, primary screen, cell-based, full library, 10K replicate subset; arbovirus infection cell-based antiviral screen; hit rate 0.37% among 200,000; AID 1251, 2008; inhibition, % at 10 µM;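 active = inhibition from about 30%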;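 also: bluetongue infection of BSR cells; cell survival read as ATP light after 72 h; 0% = infected wells without compound and 100% = uninfected wells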
YopH inh: YopH tyrosine phosphatase inhibitors, primary screen, biochemical, fluorescence Ex485/Em525. inhibition, %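 (about 10 µM by stock and volumes)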. hit rate 0.16% among 140,000. AID 898, 2007;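 active = inhibition of 50% or more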;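 also: controls were vehicle for no effect and minimum signal wells for full effect; inactives centre near -20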
RecA splice inh: Mtb RecA intein splicing inhibitors, primary screen, biochemical, fluorescence, HTS. hit rate 0.75% among 290,000. inhibition, %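 (about 9 µM by stock and volumes)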. cell-free RecA intein splicing. AID 2221, 2009; in the data active = inhibition above about 30%; inconclusive = no clear call, values can overlap the other calls;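 also: 0% = vehicle wells and 100% = reference inhibitor control wells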
Target sequence (P9WHJ3 whole entry, looked up, canonical isoform): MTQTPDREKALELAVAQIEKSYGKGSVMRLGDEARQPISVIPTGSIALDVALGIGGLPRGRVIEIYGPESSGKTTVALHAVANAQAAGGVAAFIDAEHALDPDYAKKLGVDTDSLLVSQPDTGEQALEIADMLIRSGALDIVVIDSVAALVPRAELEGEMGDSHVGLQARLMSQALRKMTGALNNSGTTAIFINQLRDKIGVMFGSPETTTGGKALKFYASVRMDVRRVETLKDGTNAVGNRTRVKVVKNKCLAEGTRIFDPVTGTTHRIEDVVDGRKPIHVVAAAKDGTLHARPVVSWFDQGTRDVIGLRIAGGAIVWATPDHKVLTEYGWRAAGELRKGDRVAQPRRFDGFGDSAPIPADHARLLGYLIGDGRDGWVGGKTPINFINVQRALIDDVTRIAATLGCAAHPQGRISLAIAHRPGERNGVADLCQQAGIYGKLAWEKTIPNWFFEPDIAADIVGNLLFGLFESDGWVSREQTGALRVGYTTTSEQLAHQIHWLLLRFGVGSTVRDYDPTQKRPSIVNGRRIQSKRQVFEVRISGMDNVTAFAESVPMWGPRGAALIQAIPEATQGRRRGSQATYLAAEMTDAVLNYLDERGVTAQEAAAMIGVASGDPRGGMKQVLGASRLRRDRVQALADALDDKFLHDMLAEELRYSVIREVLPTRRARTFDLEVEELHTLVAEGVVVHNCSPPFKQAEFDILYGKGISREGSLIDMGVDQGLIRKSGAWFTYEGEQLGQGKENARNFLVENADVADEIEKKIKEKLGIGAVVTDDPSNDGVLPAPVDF
Arbovirus anti repeat: second read-out of Arbovirus anti, no call of its own (marks repeat the call); inhibition, %; measured here: 10K subset replicate screen; many hits read low in the repeat;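 first of two repeat runs on a subset; 0% = infected and 100% = uninfected wells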
Active calls of the source: *; ? = inconclusive; · = no result given.

SMILES	Mtb growth	Mtb bLac sens	Arbovirus anti	YopH inh	RecA splice inh	others
COc1ccc(CNC(=O)C(c2ccncc2)N(C(=O)Cc2cccs2)c2cccc(C)c2)cc1 (stereo not drawn)	6%	8	-7	-36	1.2
CCN(CC)c1ncnc2scc(C3COc4ccccc4O3)c12 (stereo not drawn)	0%	-15	6	-8	19
O=S(=O)(Cc1ccccc1)c1ccccc1-c1nnc(-c2ccccc2)o1	1%	4	-1	-10	2.7
COc1cc(/C=N/NC(=O)c2c(-c3ccccc3)noc2C)cc(OC)c1OC	-4%	0	7	-20	-2.1
CCCCN(C(=O)NC(=O)Nc1ccccc1C)S(C)(=O)=O	-3%	-3	8	-44	-0.7
Cc1ccc(Cn2ncc3c(N4CCOCC4)ncnc32)cc1	-6%	-11	-3	-65	·
CCCn1c(CCC(=O)O)nc2cc(S(N)(=O)=O)ccc21	4%	-8	·	·	0.6
Cc1cc(N2CCCCC2)nc(N2CCOCC2)n1	-4%	-3	3	-16	2.8
C/C(=N\O)c1oc2ccc3c(C)cc(=O)oc3c2c1C	-6%	-7	·	·	-0.5
CCn1c(SCC(=O)Nc2ccc(S(=O)(=O)Nc3ccccn3)cc2)nnc1-c1ccncc1	3%	-7	7	-25	-1.2
Cc1onc(-c2ccccc2Cl)c1C(=O)Nc1c(C)n(C)n(-c2ccccc2)c1=O	-3%	-8	-2	-45	-2.0	Arbovirus anti repeat=-1
O=C1NC(NS(=O)(=O)c2ccc(Cl)cc2)(C(F)(F)F)C(=O)N1Cc1cccnc1 (stereo not drawn)	8%	-4	-1	-21	-1.2
COc1ccc(C(=O)NCC(=O)N/N=C/C(C)=C/c2ccccc2)cc1OC	7%	8	9	-26	-1.8
Cc1cc(C)n(CC(=O)O)n1	-7%	-3	9	-1	·
Cc1sc(/C=C2\C(=O)ON=C2c2ccccc2)cc1Br	-1%	98	-2	-16	-6.5
Nc1nncn1C(=O)c1cc(Br)ccc1Cl	-4%	-1	10	-20	1.1
Cn1cccc1/C=N/NC(=O)Cc1cccs1	-4%	-14	·	·	0.1
CC(=O)Cc1nsc(NC(=O)c2ccc(Cl)cc2Cl)n1	-5%	-11	3	·	2.1
COc1ccccc1CNC(=O)CS(=O)(=O)c1ccc(C)cc1	·	-13	·	·	-1.2
CC(C)C(=O)Nc1cc2c(cc1C(=O)c1ccccc1)OCCO2	8%	6	-1	-34	-0.9
CNC(=O)NC(=O)COC(=O)c1ccccc1OCc1ccccc1	8%	-4	11	·	2.1
CC(C)CCN(C(=S)NC(=O)C1CCCCC1)c1c(N)n(Cc2ccccc2)c(=O)[nH]c1=O	10%	1	32*	·	1.6
Cc1cc(C)c(S(=O)(=O)c2ccccc2)c(OC(=O)c2ccc(Cl)cc2Cl)n1	·	-6	5	-39	·
Cc1cccc(N2CCN(C(=O)CCCn3c(=O)c4cccn4c4cccnc43)CC2)c1C	·	11	·	·	16
Cc1onc(-c2c(Cl)cccc2Cl)c1NC(=O)NN(C)c1ccc([N+](=O)[O-])cn1	-5%	3	·	·	-4.1
COc1ccc(NC(=O)C(=O)N/N=C(\C)CC(=O)Nc2cc(C)ccn2)c(OC)c1	-7%	-9	·	·	·
O=C(Nc1cccnc1)c1cc(-c2cccc(Cl)c2)on1	·	-2	·	·	1.8
COc1ccc(-c2nc(CS(=O)CC(=O)N3CCOCC3)c(C)o2)cc1OC (stereo not drawn)	·	-4	·	·	-0.5
Cc1ccccc1CN1CCN(CC2CC2)CC1CCO (stereo not drawn)	·	4	·	·	0.5
Cc1cccc(NC(=O)c2ccc3c(c2)C(=O)N(Cc2cccnc2)C3=O)c1C	·	-10	·	·	0.0
c1ccc(COc2ccc3nocc3c2)cc1	·	3	·	·	1.8
COCCNC(=O)C(C)N1c2cccc3cccc(c23)S1(=O)=O (stereo not drawn)	-5%	1	-1	-14	0.4
Cc1cc(C)c(C)c(S(=O)(=O)N2CCC(C(=O)NNC(=O)c3ccccc3O)CC2)c1C	·	-2	·	·	9.6
O=C(c1ccco1)N1CCN(CCOCCOc2cccc3ccccc23)CC1	-5%	1	0	-16	0.5
CCOC(=O)Cn1c(=O)oc2cc(S(=O)(=O)N3CCc4ccccc43)ccc21	-1%	0	-4	-41	-0.5	Arbovirus anti repeat=5
C#CCn1c(=NC(=O)c2ccc(S(=O)(=O)N3CCc4ccccc4C3)cc2)sc2cc(S(N)(=O)=O)ccc21	3%	0	-31	-20	1.9
Clc1ccccc1Oc1cnc2ccccc2n1	5%	13	-6	-10	0.4
Cc1cc(C)nc(NC(=O)c2c(Cl)cccc2Cl)n1	1%	-7	-3	·	-3.6
CS(=O)(=O)c1ccc([C@@H](O)[C@@H](CO)NC(=O)C(Cl)Cl)cc1	·	92	·	·	1.0
CCOc1cc(/C=N/NC(=O)C(=O)NCCCOC(C)C)cc(Br)c1O	8%	-5	2	-10	-4.2
C/C(=N\Nc1nc2ccccc2[nH]1)c1ccc(N2CCOCC2)cc1	53%	-3	5	·	-2.2
O=C(c1ccccc1)c1ccc(Cn2cc(-c3ccccc3)nn2)cc1	·	45	·	·	1.6
O=C1Nc2ccccc2Nc2ccccc21	·	5	·	·	0.5
Cc1ccc(C(=O)N(C)c2ccc(OCC(=O)N3c4ccc(C)cc4C4CN(C)CCC43)cc2)cc1 (stereo not drawn)	2%	3	-13	·	·
CCOC(=O)C1=C(C)N(CCCC(=O)O)C(=O)NC1c1ccc(Cl)cc1 (stereo not drawn)	·	0	·	·	0.4
COc1ccccc1CN1CCN(S(=O)(=O)c2ccc(C)cc2)CC1	·	-6	·	·	-2.1
O=C(O)/C=C/C(=O)Nc1ccc(O)cc1	-12%	-5	·	·	-20
Cc1ccsc1C(=O)NCCC(c1ccccc1)c1ccccc1	0%	-6	-9	-11	8.2
COc1ccc(-c2noc(Cc3cccs3)n2)cc1	10%	2	-7	0	1.1	Arbovirus anti repeat=4
COC(=O)c1sccc1NC(=O)c1ccc(Br)o1	-6%	21	2	-12	-1.9	Arbovirus anti repeat=15

Brought forward from above: two entries, followed by the next part.
SMILES	Mtb growth	Mtb bLac sens	Arbovirus anti	YopH inh	RecA splice inh	others
COc1ccc(-c2noc(Cc3cccs3)n2)cc1	10%	2	-7	0	1.1	Arbovirus anti repeat=4
COC(=O)c1sccc1NC(=O)c1ccc(Br)o1	-6%	21	2	-12	-1.9	Arbovirus anti repeat=15
O=C(NCCc1c[nH]c2ccc(Cl)cc12)c1ccc([N+](=O)[O-])cc1	1%	-1	·	·	-1.2
COc1cc(CNCCNC(=O)c2nonc2N)ccc1OCc1ccc(Cl)nc1	1%	4	2	·	2.4
O=C(COc1ccc(F)cc1F)N1CCCCCCC1	·	0	·	·	-1.1
COc1ccc(Nc2nc(NCc3ccco3)nc(N/N=C/c3ccccc3)n2)cc1	13%	88	-4	-38	-2.6
CC(C)CC(=O)NC(c1ccccc1Cl)c1c(O)ccc2ccccc12 (stereo not drawn)	5%	4	-10	-17	-1.3
COC(=O)C1=C(N)Oc2cc(C)n(CCCn3ccnc3)c(=O)c2C1c1ccc(Cl)cc1 (stereo not drawn)	-1%	-1	-7	-49	2.7
COC(=O)c1cccc(N(C(=O)c2ccco2)C(C(=O)NC2CCCC2)c2ccc(N3CCOCC3)cc2)c1 (stereo not drawn)	·	-1	·	·	2.5
O=c1[nH]c(Cc2ccccc2Cl)nc2ccccc12	1%	-5	-1	·	-1.6
Cc1ccc(-n2nc3c(=O)n(CCCC(=O)NCC(C)c4ccccc4)nc(C)c3c2C)cc1 (stereo not drawn)	·	0	·	·	-3.7
O=C(CSc1nnc(-c2cccs2)o1)Nc1cccc(S(=O)(=O)N2CCCCC2)c1	7%	?	1	-15	0.5

Compounds above that contain fluorine (2):
SMILES	Mtb growth	Mtb bLac sens	Arbovirus anti	YopH inh	RecA splice inh	others
O=C1NC(NS(=O)(=O)c2ccc(Cl)cc2)(C(F)(F)F)C(=O)N1Cc1cccnc1 (stereo not drawn)	8%	-4	-1	-21	-1.2
O=C(COc1ccc(F)cc1F)N1CCCCCCC1	·	0	·	·	-1.1

(next part)
SMILES	Mtb growth	Mtb bLac sens	Arbovirus anti	YopH inh	RecA splice inh	others
Cn1c(-c2sc3ccccc3c2Cl)n[nH]c1=S	2%	6	15	-10	2.9
CC1(c2ccccc2)NC(=O)N(N)C1=O (stereo not drawn)	2%	-9	-4	·	1.4
COc1cccc(OC)c1C(=O)Nc1ccc2c(c1)OCCO2	-4%	4	3	-52	-0.2	Arbovirus anti repeat=5
c1ccc(C(c2ccccn2)c2ccccn2)cc1	2%	-11	4	-28	2.8
COc1cccc(CNC(=O)C(CC(C)C)NC(=O)c2ccccc2C)c1 (stereo not drawn)	·	-4	·	·	-3.0
COc1ccccc1OCC(=O)Nc1ccc2c(c1)C(=O)N(CC1CCCO1)C2=O (stereo not drawn)	-1%	1	3	·	-3.9
Nc1nnnn1/N=C/c1ccccn1	-2%	2	2	-1	-1.9
COc1ccc(OCC(=O)NC(=S)Nc2ccccc2F)cc1	1%	-5	-3	-15	0.7
Cc1ccc(S(=O)(=O)N2CCCC2)cc1C(=O)O	4%	4	11	-24	-0.5
Cn1nnc2cc(C(=O)N3CCC(c4ccccc4)C3)ccc21 (stereo not drawn)	-2%	-7	1	-25	2.8
COc1ccc(NC(=O)c2ccc(-c3nn(C)c(=O)c4ccccc34)cc2)cc1C(N)=O	·	6	·	·	-1.3
CCC1(C)SC(N)=NN1C(C)=O (stereo not drawn)	3%	13	-6	·	-2.4
CCN1CCN(C(=S)Nc2ccc([N+](=O)[O-])cc2)CC1	-8%	-2	5	-19	0.6
CCCC(=O)OCC(=O)c1[nH]c(C)c(C(C)=O)c1C	0%	-7	5	·	-2.4
COc1ccc(NCC(=O)N/N=C2\CCc3ccccc32)cc1	40%	58	-2	·	3.8
COc1ccc(C(=O)N=C2SC3CS(=O)(=O)CC3N2Cc2ccccc2)cc1OC (stereo not drawn)	·	-2	·	·	-2.9
Cn1c(=O)c2c(nc(N/N=C/c3c(O)n(C4CCCCC4)c(=S)[nH]c3=O)n2C)n(C)c1=O	0%	1	·	·	-67
COc1ccccc1C(=O)NCCC(=O)N1CCN(c2ccccc2O)CC1	·	-11	·	·	-1.4
COc1ccccc1Oc1coc2cc(OCC(N)=O)ccc2c1=O	·	5	·	·	1.2
CCn1cc(/C=N\NC(=O)c2ccccc2Cl)cn1	5%	-4	1	-28	0.5
CCCCOC(=O)Nc1nnc(CC(=O)NCc2ccccc2)s1	·	-5	·	·	0.6
O=C(CN(C(=O)c1ccc2c(c1)OCCO2)c1ccccc1)NCC1CCCO1 (stereo not drawn)	-2%	-7	4	-8	·
COCCn1c(C)cc(C(=O)CSc2nc(C)c(C)c(C)n2)c1C	-3%	0	1	·	-0.3
CCc1ccc(/C=N/NC(=O)c2cc(-c3ccncc3)nc3ccccc23)s1	7%	1	-22	-31	3.9
Cc1cccc(Nc2nc3c(S(=O)(=O)c4ccccc4)nnn3c3ccccc23)c1	1%	3	-3	-33	-0.7
O=C(CN1CCN(c2ccccn2)CC1)Nc1ccc(OCc2ccccc2)cc1	·	95	-24	-2	-0.8
CC(=O)c1c(N2CCN(C(=O)C3CCCO3)CC2)nc(=S)n(-c2ccccc2)c1C (stereo not drawn)	-5%	6	7	-18	-0.3
COc1ccc2oc(C(=O)Nc3ccc(S(=O)(=O)N(C)C4CCN(C)CC4)cc3)c(C)c2c1	·	54	·	·	0.9
Cc1nc(CCNC(=O)c2ccccc2)cs1	1%	-19	12	-38	-2.2
Cc1c(Cl)c([N+](=O)[O-])nn1CC(=O)NCc1ccco1	-4%	-3	-3	-17	-2.6
O=C(NCCc1c[nH]c2ccccc12)c1cnccn1	2%	-7	13	·	-2.4
COc1ccc(-c2ccnc(SCC(=O)N3CCOCC3)n2)cc1	-2%	9	3	-10	3.9
CC1(C)CC(NC(=O)c2cc(COc3cccc(C(F)(F)F)c3)on2)CCO1 (stereo not drawn)	·	8	·	·	0.4
O=C(CN1C(=O)C2C3C=CC(C3)C2C1=O)Nc1nc(SCc2ccc(Cl)cc2)n[nH]1 (stereo not drawn)	2%	5	3	-21	4.7
COC1Cc2ccccc2N(C(=O)N2CCN(CCO)CC2)c2ccccc21 (stereo not drawn)	·	0	7	-32	-4.3
CN(C)c1ccc(/C=C/c2nc3ccccc3c(=O)n2CCO)cc1	·	6	·	·	-4.8
CC1(C)N=C(N)N=C(N)N1c1cccc(CN)c1	·	-9	·	·	-3.3
CCCNS(=O)(=O)c1ccc(CCC(=O)NCc2ccco2)cc1	-5%	-4	6	-10	-0.8
CC(=O)N1C(=O)CC(C)N(C(C)=O)c2ccc([N+](=O)[O-])cc21 (stereo not drawn)	-2%	3	2	-29	-2.0
O=C(Nc1ccccc1C(=O)N1CCOCC1)c1cccc(S(=O)(=O)N2CCCC2)c1	-16%	·	6	-16	1.5

This is a subset; rates above refer to the full screens.
